# Compound activity as filed in PubChem BioAssay.
# T cruzi repl: blocks replication of Trypanosoma cruzi; T. cruzi beta-gal in NIH3T3, luminescence, 90 h; inhibition, % (no concentration beside the values); actives 1.4% (n = 300,000);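 active = mean inhibition across valid replicates above about 55%, limit read from the data; inconclusive = mean below that limit but half or more replicates reach it; inactive = mean below it, under half of replicates reach it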;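 also: signal also drops with host cell toxicity which is not excluded here; 0% = plate median of DMSO wells and 100% = zero luminescence signal; higher percent means less beta-gal luminescence so fewer parasites; stock transfer was 50 nL into about 50 µL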
# Calb FLC: C. albicans growth modulation with fluconazole; C. albicans CaCi-2 (fluconazole-resistant clinical isolate) + fluconazole, Alamar Blue growth, 48 h; growth inhibition, % (test concentration not listed); actives 0.57% (n = 300,000); AID 1979;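 active = most replicates above 75%; inconclusive = exactly half above 75%; inactive = most below 75%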;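 also: all wells also contain fluconazole at 8 µg/ml as a sub-toxic cotreatment; 0% = median of DMSO wells and 100% = median of geldanamycin control wells; wells of about 8 µL received 7.5 nL stock; the first replicate is given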
# RanGTP-Impb inh: inhibitors of RanGTP-importin-beta interaction, primary screen, biochemical, FRET, CFP-Ran, YFP-importin-beta, homogeneous | inhibition, % (concentration not given with the values) | actives 1.1% (n = 300,000) | cell-free CFP-Ran/YFP-importin-beta FRET ratio;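 active = most replicates above 15%; inconclusive = exactly half above 15%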;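 also: 0% = DMSO wells and 100% = Ran loaded with GDP instead of GTP; wells of about 40 µL received 100 nL stock; the first replicate is given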
# AF4-AF9 inh: blocks AF4 peptide binding to human AF9; P42568; AlphaScreen, biotin-AF4 peptide binding to FLAG-AF9; inhibition, % at 10 µM; actives 0.47% (n = 350,000); AID 651704;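 active = every replicate reaching a set inhibition limit, whatever the replicate mean, cut at about 25% in these data; inconclusive = mean inhibition reaches that limit but some replicates miss it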;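 also: 0% = plate neutral control median and 100% = total signal loss; the record names both 10 and 1 µM as test concentration; the first replicate is given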
# Target sequence (P42568 whole entry, looked up): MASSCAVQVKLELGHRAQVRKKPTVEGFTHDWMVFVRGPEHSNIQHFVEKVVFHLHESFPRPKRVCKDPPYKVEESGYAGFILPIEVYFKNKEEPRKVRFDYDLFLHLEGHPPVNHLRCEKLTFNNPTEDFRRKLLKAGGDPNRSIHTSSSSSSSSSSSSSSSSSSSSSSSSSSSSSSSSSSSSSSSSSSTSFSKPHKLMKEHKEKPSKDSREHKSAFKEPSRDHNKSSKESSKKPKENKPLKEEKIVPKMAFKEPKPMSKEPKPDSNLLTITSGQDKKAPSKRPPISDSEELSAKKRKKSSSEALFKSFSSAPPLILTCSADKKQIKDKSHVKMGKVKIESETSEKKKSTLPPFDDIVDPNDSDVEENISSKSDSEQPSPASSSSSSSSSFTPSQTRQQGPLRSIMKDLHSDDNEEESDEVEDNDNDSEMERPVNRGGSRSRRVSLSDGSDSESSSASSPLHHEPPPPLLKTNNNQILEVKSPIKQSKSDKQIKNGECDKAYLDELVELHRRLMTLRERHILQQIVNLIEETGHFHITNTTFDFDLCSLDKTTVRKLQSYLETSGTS
# ALR H2O2 inh: human ALR oxidase inhibition via reduced H2O2. P55789. purified ALR, DTT oxidation, H2O2 HRP-luminol luminescence. inhibition, % (concentration not given with the values). actives 3.8% (n = 290,000);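 active = mean and each replicate at 75% or more; inconclusive = only one of the two met; inactive = neither met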;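 also: stock transfer was 7.5 nL into about 7.5 µL; 0% = neutral wells and 100% = wells with inactivated enzyme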
# Target sequence (P55789 whole entry, looked up): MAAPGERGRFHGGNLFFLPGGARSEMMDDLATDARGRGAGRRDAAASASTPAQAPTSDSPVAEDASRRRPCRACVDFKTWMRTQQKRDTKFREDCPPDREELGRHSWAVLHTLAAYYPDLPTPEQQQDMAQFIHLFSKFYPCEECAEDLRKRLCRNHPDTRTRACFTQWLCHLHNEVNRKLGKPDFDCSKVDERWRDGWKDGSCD
# rRNA inh HTS: inhibits bacterial ribosomal RNA function over humanized ribosomes; GFP signal change (wild-type ribosome), % (test concentration not listed); actives 1.6% (n = 350,000); AID 720706; E. coli WT GFP vs humanized-ribosome RFP mutants, fluorescence, 24 h; stronger effect = lower value; DMSO median 0, no signal -100;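 active = significant combined selectivity score with lowered wild-type GFP, culture density cut under 30%, mutant RFP and density less affected; inactive = any of these conditions unmet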; also: one replicate is shown; some compounds called inactive have numbers as strong as hits
# Beta cell apopt: beta cell apoptosis inhibition; actives 0.8% (n = 300,000); protection from apoptosis, % (no concentration beside the values); INS-1E cytokine-induced death, ATP luminescence, 48 h; percent of positive-control rescue, neutral wells zero; AID 435005;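 active = all replicates at 75% or more, or half of them and the mean; inconclusive = half reach 75% but not the mean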;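 also: 0% = cytokine-treated negative control wells and 100% = positive control rescue; higher means more ATP so stronger rescue from cytokine killing; wells of about 40 µL received 100 nL stock; the first replicate is given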
# FGF22 binding: binders of recombinant human FGF22 by thermal shift; calls only at 9.99 µM; SYPRO orange fluorescence; percent of sucrose octasulfate shift, DMSO zero; AID 651658; actives 1.5% (n = 340,000); Q9HCT0;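 active = melting point raised past a set limit in the mean and every replicate; inconclusive = no clear call; three in four hits are not shown here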
# Target sequence (Q9HCT0 whole entry, looked up): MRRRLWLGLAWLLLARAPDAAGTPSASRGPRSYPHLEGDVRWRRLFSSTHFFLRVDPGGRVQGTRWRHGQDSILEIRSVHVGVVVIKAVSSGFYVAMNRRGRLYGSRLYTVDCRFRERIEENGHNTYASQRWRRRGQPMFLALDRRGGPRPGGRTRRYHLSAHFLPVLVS
# rRNA inh HTS OD600: also measured in rRNA inh HTS; calls as there; OD600 change, %; measured here: OD600 growth;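 optical density of the mix in the first replicate; 0 = DMSO median and -100 = no signal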
# rRNA inh HTS RFP: further read-out of rRNA inh HTS, marked with its call; RFP signal change, %; measured here: RFP humanized mutant strains;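 first replicate; 0 = DMSO median and -100 = no signal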
# Starred values were filed as active, the others as inactive; i = inactive; u = inconclusive; x = not tested or not shown; + = active, no number. An excerpt; count on the stated rates, not on these rows.
SMILES	rRNA inh HTS	ALR H2O2 inh	RanGTP-Impb inh	FGF22 binding	rRNA inh HTS OD600	T cruzi repl	Beta cell apopt	Calb FLC	AF4-AF9 inh	rRNA inh HTS RFP
CC(C)CC(NS(=O)(=O)c1ccc2c(c1)oc(=O)n2C)C(=O)N1CC=C(c2ccccc2)CC1 (stereo not drawn)	0	-87	x	i	1	x	1	x	-3.7	-0.5
COc1ccc(Br)cc1CN(C)CC(=O)Nc1c(Cl)ccc(C)c1Cl	x	-5	0.4	x	x	25	-4	8	x	x
CSCCC(NC(=O)c1ccccc1Cl)C(=O)NNC(=O)c1ccncc1 (stereo not drawn)	6	-2	-2.8	i	14	-11	0	0	0.7	-0.2
CCOC(=O)c1ccc(N=CC2=C(O)CC(C)(C)CC2=O)cc1	x	3	-1.9	x	x	-2	-1	-1	x	x
CCN(C(=O)COC(=O)Cc1cccc2ccccc12)C1CCS(=O)(=O)C1 (stereo not drawn)	1	-1	x	i	0	x	-6	x	-4.4	-1.4
Cc1cc(C)n(CC(=O)N/N=C/c2ccc(C)o2)n1	x	-14	0.4	x	x	-9	0	-5	x	x
COc1ccc(C(=O)NC2(C(F)(F)F)C(=O)N(Cc3ccco3)C3=C2C(=O)CC(C)(C)C3)cc1OC (stereo not drawn)	x	-8	-0.4	x	x	5	3	16	x	x
Nc1ncnc2nc(SCc3ccc(Cl)cc3Cl)[nH]c12	x	-29	-1.6	x	x	-3	1	34	x	x
Cc1ccc(-n2c(C)cn(C(=O)c3ccccc3)c2=S)cc1	-35	3	u	x	-50	5	x	4	x	-7.6
Cc1cc(NC(=O)c2ccc3c(c2)C(=O)N(CC(C)C)C3=O)no1	-1	-7	1.5	i	11	0	-8	3	-1.1	1.7
COCCCn1c(C(=O)NCCN2CCOCC2)cc2c(=O)n3cccc(C)c3nc21	-7	1	1.5	i	-4	-1	3	1	-1.9	2.0
O=C(/C=C/c1ccc2ccccc2n1)c1cc(Cl)ccc1O	12	x	3.1	i	5	4	8	3	3.2	1.3
OCCNC(=S)Nc1ccc(Cl)c(Cl)c1	-17	-9	-1.1	+	-7	-12	-8	-4	9.4	-9.2
Cc1cc(Cl)ccc1OC(C)C(=O)N1CCCN(C(=O)C(C)Oc2ccc(Cl)cc2C)CC1 (stereo not drawn)	x	3	-2.4	x	x	38	10	-4	x	x
c1ccc2c(N3CCCC3)nc(-c3ccncc3)nc2c1	x	-2	-1.3	x	x	4	-2	0	x	x
COc1ccc(/C=C2\SC(=O)N(CC(=O)NN3CCN(C)CC3)C2=O)cc1OC	6	-10	1.6	i	5	-10	1	6	-14	-2.7
COC(=O)/C=C/c1ccsc1NC(C)=O	-1	14	0.4	i	4	-16	-5	-4	-1.3	10
CCC(C)NC(=O)CO/N=C/c1ccc(C(=O)OC)cc1 (stereo not drawn)	x	-4	-1.8	x	x	-4	-9	-1	x	x
COCCn1c(C)cc(C(=O)CSc2nc3nc(C)cc(C)n3n2)c1C	x	1	1.2	x	x	2	0	7	x	x
CC1CCC(NC(=O)Cn2ncc3ccccc32)CC1 (stereo not drawn)	2	-1	u	i	5	-6	x	-7	8.3	-7.6
CN(C)c1ccc(-c2nc3ccccn3c2/N=C/c2ccc(Br)cc2)cc1	5	50	-2.4	i	15	22	-1	-10	u	19
CC(OC(=O)c1cccc(-n2cnnn2)c1)C(=O)Nc1cccc(Cl)c1 (stereo not drawn)	9	-40	4.0	i	-7	-1	6	-7	-13	-1.1
Cc1ccc(NC(=O)CCn2cnc3ccccc3c2=O)c(C)c1	5	x	1.1	i	16	-4	12	4	2.4	1.5
COCc1c(C(=O)OCC(=O)Nc2ccc(OC(F)F)cc2)oc2ccccc12	3	-10	x	i	7	x	-3	x	-0.7	-1.4
COc1ccc(/C=C2\NC(=S)N(CC3CCCO3)C2=O)c(OC)c1 (stereo not drawn)	x	1	8.9	x	x	2	x	47	x	x
CCOC(=O)c1c(NC(=O)CSc2nnc(N)s2)sc(C)c1-c1ccc(C)cc1	-26	-2	-2.1	i	-43	25	-1	15	6.0	2.4
CCOC(=O)Nc1ccc(OC)c([N+](=O)[O-])c1	18	-3	u	i	10	-8	-13	-6	-1.6	-1.0
CCCOc1cccc(-c2nnc(N)s2)c1	x	21	-1.5	x	x	-3	x	-3	x	x
CC(C)(C)NC(=O)CN1CCC(NC(=O)C23CC4CC(CC(C4)C2)C3)CC1	0	-3	5.7	i	-5	27	-2	-15	-0.9	-2.6
CSc1c(CC(=O)Nc2ccccc2C(F)(F)F)n(Cc2ccccc2)c2ccccc12	x	-4	-1.9	x	x	8	11	-6	x	x
O=c1cc(N2CCOCC2)[nH]c(=O)n1Cc1ccc(F)cc1	7	11	11	i	10	-3	-4	5	6.0	-1.4
Cc1cccc(CN2CCN(Cc3ccc(-n4cccn4)cc3)CC2CCO)n1 (stereo not drawn)	13	-3	-0.2	i	5	12	-10	-24	-0.2	-1.3
c1ccc2sc(-c3ccncc3)nc2c1	3	-5	3.4	i	1	15	2	-1	-3.4	-4.1
CCCCCCCNC(=O)c1ccc(N2CCC3(CC2)OCCO3)c([N+](=O)[O-])c1	-26*	-3	-2.4	i	6.1*	24	2	-2	-3.0	-1.5*
COc1ccc(S(=O)(=O)N2CCN(C(=S)NCC3CCCO3)CC2)cc1OC (stereo not drawn)	2	-20	2.3	i	3	-3	-2	-5	-0.8	-0.5
CCOC(=O)CN1C(=O)NC(C)(c2ccc(OC(F)F)cc2)C1=O (stereo not drawn)	x	x	-0.4	x	x	0	-4	-23	x	x
Nc1nnnn1/N=C/c1cccc(Oc2ccccc2)c1	x	-15	u	x	x	-5	-14	78*	x	x
COC(=O)c1ccc(OS(=O)(=O)N(C)C)cc1	13	-31	2.5	i	8	-3	-4	-12	-2.5	0.4
C/C(CC(=O)Nc1cccc2c1CCCC2)=N\NC(=O)c1ccccc1N	x	-5	u	x	x	-4	3	6	x	x
COc1ccc(C2=CC(=O)OC(C)(c3ccccc3)O2)cc1 (stereo not drawn)	x	-9	-1.8	x	x	-36	2	8	x	x
Cn1cccc1C(=O)Nc1ccc(N2CCOCC2)cc1	7	97*	x	i	12	x	10	x	-10	-2.3
Cc1cc(O)ccc1N/C=C/c1onc(C)c1[N+](=O)[O-]	9	-3	-2.7	i	16	-37	7	8	0.8	6.9
CC(C)(Oc1ccc(Cl)cc1)C(=O)OCC(=O)NCCc1ccccc1	-30	-6	1.7	i	-25	-14	-7	-3	-4.0	-2.2
CN(C)c1cccc(C(=O)Nc2ccc3nc4n(c(=O)c3c2)CCCCC4)c1	-26*	x	-1.1	i	-7.1*	7	4	18	6.8	-1.2*
O=C(Cc1ccccc1)Nc1ccc(C(=O)O)cc1	x	-9	-3.5	x	x	0	-11	-22	x	x
CCOC(=O)N1CCN(C(=O)c2ccc(N(Cc3ccc(C)cc3)S(C)(=O)=O)cc2)CC1	x	-5	4.9	x	x	-4	2	16	x	x
CN(C)CCCNc1cc(C(C)(C)C)nc2c(-c3ccc(Cl)cc3)cnn12	-50	13	1.7	i	-41	21	21	95*	x	-13
CC(=O)c1cccc(Nc2cc(C)nc3c(C)cc(C)cc23)c1	x	-6	-0.5	x	x	56*	18	-20	x	x
O=C(NC(N1CCOCC1)C(Cl)(Cl)Cl)c1ccc(Br)cc1 (stereo not drawn)	-10	4	5.4	x	-7	-3	-1	-12	-0.6	4.1
COc1ccc(CC(=O)O/N=C(\N)Cc2cccc3ccccc23)cc1OC	-15	-10	2.6	i	-21	9	-4	3	-5.4	-7.6
CN(C(=O)CN(CCO)CC(=O)N(C)C(C)(C)Cc1ccccc1)C(C)(C)Cc1ccccc1	-32	-9	x	i	-36	x	0	x	2.7	-7.3
Cc1ccc(N(Cc2cc3ccccc3[nH]c2=O)S(=O)(=O)c2ccccc2)cc1	8	x	0.5	i	5	-8	-2	0	-1.8	3.6
COC(=O)c1ccc(CN2CCc3ccccc32)cc1	-20	98*	-0.5	i	-7	10	0	-3	-8.9	-4.7
CCN(C(=O)C1CCN(S(=O)(=O)c2cccc3nonc23)CC1)c1ccccc1	8	x	-4.0	i	1	-5	-2	3	4.3	4.2
CSc1nc(N2CCOCC2)c2c3c(sc2n1)CCCC3	x	3	5.4	x	x	22	3	0	x	x
Cc1ccc(OS(=O)(=O)c2ccc(-c3csc(C)n3)s2)c(C)c1	-9	-5	4.9	i	-1	16	3	2	-2.5	1.1
C=CCN1C(=O)NC(c2ccccc2)(C(F)(F)F)S/C1=C(\C#N)c1nnc(N2CCOCC2)n1-c1ccccc1 (stereo not drawn)	-2	-9	u	i	-6	2	-1	u	-1.2	-1.3
C[C@H](NC(=O)c1[nH]cnc1C(=O)Nc1cccc(Cl)c1)c1ccccc1	3	-4	x	i	-12	x	1	x	5.5	12
COCCNCc1ccc(C(C)C)cc1	22	-24	0.0	i	12	21	-1	-3	0.9	-0.5
O=S(=O)(NCc1ccccc1Br)c1cccs1	x	0	u	x	x	-12	-12	-6	x	x

# Molecules above that contain a tert-butyl group (two):
SMILES	rRNA inh HTS	ALR H2O2 inh	RanGTP-Impb inh	FGF22 binding	rRNA inh HTS OD600	T cruzi repl	Beta cell apopt	Calb FLC	AF4-AF9 inh	rRNA inh HTS RFP
CC(C)(C)NC(=O)CN1CCC(NC(=O)C23CC4CC(CC(C4)C2)C3)CC1	0	-3	5.7	i	-5	27	-2	-15	-0.9	-2.6
CN(C)CCCNc1cc(C(C)(C)C)nc2c(-c3ccc(Cl)cc3)cnn12	-50	13	1.7	i	-41	21	21	95*	x	-13

# Remaining list, next part:
SMILES	rRNA inh HTS	ALR H2O2 inh	RanGTP-Impb inh	FGF22 binding	rRNA inh HTS OD600	T cruzi repl	Beta cell apopt	Calb FLC	AF4-AF9 inh	rRNA inh HTS RFP
CCC(=O)Nc1nnc(SCC(=O)NCc2ccc3c(c2)OCO3)s1	16	-5	3.4	i	14	-5	-7	3	-9.8	2.3
Cc1ccc(SCC(=O)NCCc2ccccc2)cc1	-24	-4	-3.9	i	-25	7	-7	2	-7.5	-3.0
CC1(c2ccc3c(c2)OCO3)NC(=O)N(CC(=O)Nc2ccc(N3CCOCC3)cc2)C1=O (stereo not drawn)	x	7	0.1	x	x	6	-8	5	x	x
Cc1nnsc1C(=O)N1CCCC(Nc2ccc(C(C)C)cc2)C1 (stereo not drawn)	1	72	-0.6	i	-4	8	-2	-11	3.7	-1.9
CC(C)Cn1c(/C=C/c2ccco2)nc2ccccc21	18	97*	-3.3	i	6	26	-5	28	3.3	2.7
COc1ccc(-c2cccc(C3CC=CC4C3C(=O)N(Cc3ccccc3)C4c3ccc4ccccc4c3)c2)cc1 (stereo not drawn)	14	x	0.1	i	22	8	-6	-10	x	3.6
Cc1nnc(SCC(=O)NNC(=O)COc2ccc(Cl)cc2)n1C	0	0	-2.6	i	22	-9	-5	2	-7.7	-3.4
